# MLL AF4-AF9 inh – inhibitors of human MLL-AF4/AF9 interaction; AID 651704; AlphaScreen, biotin-AF4 peptide binding to FLAG-AF9; inhibition, % at 10 µM; P42568; 350,000 tested, 0.47% active;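 active = every replicate reaching a set inhibition limit, whatever the replicate mean, cut at about 25% in these data; inconclusive = mean inhibition reaches that limit but some replicates miss it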;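 also: 0% = plate neutral control median and 100% = total signal loss; the record names both 10 and 1 µM as test concentration; the first replicate is given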
# Target sequence (P42568 whole entry, looked up): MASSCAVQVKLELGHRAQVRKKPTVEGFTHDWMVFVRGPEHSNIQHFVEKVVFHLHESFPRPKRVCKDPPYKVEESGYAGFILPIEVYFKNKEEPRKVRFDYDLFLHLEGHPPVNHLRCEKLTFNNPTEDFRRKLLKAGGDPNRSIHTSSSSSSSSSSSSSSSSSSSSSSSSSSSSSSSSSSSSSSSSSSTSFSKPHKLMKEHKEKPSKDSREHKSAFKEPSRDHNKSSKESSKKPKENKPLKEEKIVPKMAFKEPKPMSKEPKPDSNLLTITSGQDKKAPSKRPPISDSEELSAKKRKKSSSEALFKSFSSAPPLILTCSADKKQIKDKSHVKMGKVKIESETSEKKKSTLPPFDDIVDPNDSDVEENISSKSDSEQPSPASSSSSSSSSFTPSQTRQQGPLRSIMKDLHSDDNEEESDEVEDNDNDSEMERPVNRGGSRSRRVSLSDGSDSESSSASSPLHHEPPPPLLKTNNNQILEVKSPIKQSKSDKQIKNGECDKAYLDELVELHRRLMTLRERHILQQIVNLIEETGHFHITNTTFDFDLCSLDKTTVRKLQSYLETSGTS
# FGF22 binding – FGF22 (human) thermal shift binding; recombinant FGF22 thermal shift, SYPRO orange fluorescence; percent of sucrose octasulfate shift, DMSO zero; calls only at 9.99 µM; 340,000 tested, 1.5% active;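 active = melting point raised past a set limit in the mean and every replicate; inconclusive = no clear call; three in four hits are not shown here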
# Target sequence (Q9HCT0 whole entry, looked up): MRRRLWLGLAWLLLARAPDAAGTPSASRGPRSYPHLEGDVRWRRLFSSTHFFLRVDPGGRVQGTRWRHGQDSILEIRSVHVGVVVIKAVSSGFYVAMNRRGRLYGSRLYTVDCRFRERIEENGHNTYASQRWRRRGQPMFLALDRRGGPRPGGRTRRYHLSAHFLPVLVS
# * hit, by the source's call; i = inactive; ? = inconclusive; & = joins results of further samples. Not all compounds are listed; rates above refer to the full screens.
# Results follow in this order: MLL AF4-AF9 inh, FGF22 binding
C[C@@H]1CCCCO[C@@H](CN(C)CC2CC2)[C@H](C)CN([C@@H](C)CO)C(=O)c2cc(NC(=O)Nc3ccc4c(c3)OCO4)ccc2O1
  ?, i
N[C@H]1CC[C@H](CCn2cc(C3CCCCC3)nn2)O[C@@H]1CO
  1.7, i
CO[C@H]1CN(C)C(=O)c2ccc(NS(=O)(=O)c3cccc(C)c3)cc2OC[C@@H](C)NC[C@@H]1C
  -1.2, i
CO[C@@H](CN(C)Cc1cc(F)ccc1F)[C@@H](C)CN([C@H](C)CO)S(=O)(=O)c1ccc(C)cc1
  0.7, i
COc1ccc(S(=O)(=O)N(C)C[C@H]2Oc3ccc(NC(=O)NC4CCCCC4)cc3C(=O)N([C@@H](C)CO)C[C@@H]2C)cc1
  -0.6, i
O=C(NCC[C@H]1CC[C@H](NC(=O)c2ccccc2F)[C@@H](CO)O1)c1cnccn1
  -1.9, i
O=C(N[C@H]1CC[C@@H](CCNC(=O)C2CCOCC2)O[C@H]1CO)c1ccncc1
  1.7, i
O=C(C1CCC1)N1C[C@H]2[C@@H](c3ccccc31)[C@H](CO)N2C(=O)Cc1ccccn1
  1.3, i
C[C@H](NC(=O)C[C@H]1C=C[C@@H](NC(=O)Cc2ccccn2)[C@@H](CO)O1)c1ccccc1
  1.0, i
C[C@@H]1CN([C@@H](C)CO)C(=O)c2cc(-c3cncnc3)cnc2O[C@H]1CN(C)C(=O)CN1CCOCC1
  -0.4, i
COc1cccc(S(=O)(=O)N(C)C[C@H]2Oc3cc(C#CCN(C)C)ccc3S(=O)(=O)N([C@@H](C)CO)C[C@H]2C)c1
  9.4, i
CO[C@H]1CN(C)C(=O)c2ccc(NC(=O)NC(C)C)cc2OC[C@H](C)N(Cc2ccc(-c3ccccn3)cc2)C[C@H]1C
  3.7, i
C[C@@H]1CN([C@@H](C)CO)S(=O)(=O)c2ccc(C#CC3CCCC3)cc2O[C@@H]1CN(C)C(=O)Cc1ccncc1
  7.1, i
C[C@H](CO)N1C[C@H](C)[C@@H](CN(C)S(C)(=O)=O)OCCCC[C@H](C)Oc2ccc(NS(=O)(=O)c3ccc(F)cc3)cc2C1=O
  -1.1, i
COc1ccc2c3c([nH]c2c1)[C@H](CO)N(C(=O)Nc1ccc(F)cc1)CC31CN(CC2CCOCC2)C1
  0.4, i
O=C(C[C@@H]1CC[C@H]2[C@@H](COC[C@@H](O)CN2Cc2ccccc2)O1)N1CCOCC1
  -2.7, i
O=C(Nc1ccc(C(F)(F)F)cc1)N1[C@@H]2CNC[C@H]1C2c1ccc(/C=C/c2ccccc2)cc1 (stereo not given in full)
  5.7&0.5, i
N#C[C@H]1[C@H](c2ccc(C3=CCCC3)cc2)[C@H](CO)N1C(=O)C1CCC1
  -2.9, i
COc1ccc(C(=O)Nc2ccc3c(c2)C(=O)N(C)C[C@@H](OC)[C@@H](C)CN(C(C)=O)[C@H](C)CO3)cc1
  6.1, i
CCCC#Cc1ccc2c(c1)O[C@H](CN(C)CC1CCOCC1)[C@H](C)CN([C@@H](C)CO)S2(=O)=O
  -5.7, i

# Seven consecutive compounds from above:
# Results follow in this order: MLL AF4-AF9 inh, FGF22 binding
C[C@H](CO)N1C[C@H](C)[C@@H](CN(C)S(C)(=O)=O)OCCCC[C@H](C)Oc2ccc(NS(=O)(=O)c3ccc(F)cc3)cc2C1=O
  -1.1, i
COc1ccc2c3c([nH]c2c1)[C@H](CO)N(C(=O)Nc1ccc(F)cc1)CC31CN(CC2CCOCC2)C1
  0.4, i
O=C(C[C@@H]1CC[C@H]2[C@@H](COC[C@@H](O)CN2Cc2ccccc2)O1)N1CCOCC1
  -2.7, i
O=C(Nc1ccc(C(F)(F)F)cc1)N1[C@@H]2CNC[C@H]1C2c1ccc(/C=C/c2ccccc2)cc1 (stereo not given in full)
  5.7&0.5, i
N#C[C@H]1[C@H](c2ccc(C3=CCCC3)cc2)[C@H](CO)N1C(=O)C1CCC1
  -2.9, i
COc1ccc(C(=O)Nc2ccc3c(c2)C(=O)N(C)C[C@@H](OC)[C@@H](C)CN(C(C)=O)[C@H](C)CO3)cc1
  6.1, i
CCCC#Cc1ccc2c(c1)O[C@H](CN(C)CC1CCOCC1)[C@H](C)CN([C@@H](C)CO)S2(=O)=O
  -5.7, i

# Further structures:
# Results follow in this order: MLL AF4-AF9 inh, FGF22 binding
COc1ccc(NC(=O)Nc2cccc3c2O[C@@H](CN(C)Cc2ccc(Oc4ccccc4)cc2)[C@@H](C)CN([C@@H](C)CO)C3=O)cc1
  4.2, i
C[C@H](CO)N1C[C@H](C)[C@H](CN(C)Cc2ccc(Oc3ccccc3)cc2)OCc2cn(nn2)CCCC1=O
  0.3, i
Cc1ccc(S(=O)(=O)N(C)C[C@H]2Oc3ccc(NS(=O)(=O)c4ccc(Cl)cc4)cc3C(=O)N([C@@H](C)CO)C[C@@H]2C)cc1
  -0.5, i
C[C@H]1CN([C@@H](C)CO)S(=O)(=O)c2ccc(C#CC(C)(C)O)cc2O[C@H]1CN(C)Cc1ccncc1
  -0.2, i
CC(=O)N[C@@H]1CC[C@H](CCNC(=O)Nc2ccc(C(F)(F)F)cc2)O[C@H]1CO
  14, i
COc1cccc(-c2cn(CC[C@@H]3CC[C@@H](NC(C)=O)[C@@H](CO)O3)nn2)c1
  -0.2, i
C[C@H]1CN([C@@H](C)CO)C(=O)c2cc(C#Cc3ccccc3)cnc2O[C@H]1CN(C)C(=O)CCN1CCCCC1
  10, i
C[C@H](CO)N1C[C@H](C)[C@@H](CN(C)C(=O)Nc2ccc(C(F)(F)F)cc2)Oc2ccc(NC(=O)CCN3CCOCC3)cc2C1=O
  -3.2, i
COc1ccc(NC(=O)Nc2ccc3c(c2)[C@H]2C[C@H](CC(=O)NC4CCCCC4)O[C@H](CO)[C@H]2O3)cc1
  -3.5, i
C[C@H]1CN([C@@H](C)CO)C(=O)c2cc(Br)cnc2O[C@H]1CN(C)Cc1ccncc1
  -4.5, i
COc1ccc(NC(=O)Nc2ccc3c(c2)C(=O)N([C@@H](C)CO)C[C@H](C)[C@H](CN(C)Cc2ccc(C(=O)Nc4ccccc4N)cc2)O3)cc1
  -4.8, i
COCC(=O)N1CCC2(CC1)CN(Cc1nccs1)[C@@H](CO)c1c2c2ccc(OC)cc2n1C
  -2.9, i
Cc1cccc(CN(C)C[C@@H]2Oc3ncc(Br)cc3C(=O)N([C@H](C)CO)C[C@@H]2C)c1
  -2.1, i
Cc1noc(C)c1NC(=O)Nc1ccc2c(c1)C(=O)N([C@@H](C)CO)C[C@H](C)[C@H](CN(C)Cc1ccccc1)O2
  -2.4, i
O=C(C[C@H]1CC[C@H]2[C@@H](COC[C@H](O)CN2S(=O)(=O)c2ccc(Cl)cc2)O1)N[C@@H]1CCN(Cc2ccccc2)C1
  7.1, i
CCNC(=O)C[C@@H]1C=C[C@@H](NC(=O)NC2CCCCC2)[C@H](CO)O1
  -0.3, i
CCCC#Cc1ccc2c(c1)[C@@H]1[C@@H](CCN1S(=O)(=O)c1ccc(C)cc1)[C@@H](CO)N2C
  -4.6, i
O=C(C1CCCC1)N1CCCCN2[C@H](CO)[C@H](c3ccc(-c4ccncc4)cc3)[C@H]2C1
  1.6, i
COc1ccc(S(=O)(=O)Nc2ccc3c(c2)C(=O)N([C@H](C)CO)C[C@H](C)[C@@H](CN(C)S(=O)(=O)c2cn(C)cn2)O3)cc1
  -2.0, i
C[C@@H]1CN([C@H](C)CO)C(=O)c2cc(NC(=O)CCCN(C)C)ccc2O[C@H]1CN(C)Cc1ccc(C(=O)O)cc1
  0.1, i
COc1ccc2c3c(n(C)c2c1)[C@H](CO)N(C(=O)C1CCCC1)CC31CN(C(=O)CC2CC2)C1
  3.5, i
CCS(=O)(=O)N1[C@H](CO)[C@@H](c2ccc(C#CCC3CCCC3)cc2)[C@@H]1C#N
  1.6, i
COc1cccc(S(=O)(=O)Nc2ccc3c(c2)[C@@H]2C[C@@H](CC(=O)NCc4cccc(F)c4)O[C@H](CO)[C@@H]2O3)c1
  -5.7, i
CNC(=O)C[C@H]1CC[C@@H]2[C@@H](COc3ccc(NS(=O)(=O)c4ccccc4C)cc3C(=O)N2C)O1
  -0.9, i
O=C(N[C@H]1C=C[C@H](CC(=O)N2CCN(c3ccccc3)CC2)O[C@@H]1CO)c1ccccc1
  -0.9, i
COCc1cn(CC[C@H]2CC[C@@H](NC(=O)Nc3ccc(F)cc3)[C@@H](CO)O2)nn1
  -1.3, i
COC(=O)[C@]12C[C@H](CC(=O)NCc3ccccc3)C(=O)N(Cc3ccccc3)C1=C[C@H](C1CCCC1)O[C@@H]2C
  2.5, i
C[C@@H]1CN([C@H](C)CO)C(=O)c2cc(NC(=O)NC3CCCCC3)ccc2O[C@@H](C)CCCCO[C@@H]1CN(C)C(=O)NC1CCCCC1
  0.2, i
CS(=O)(=O)N1CC2(C1)[C@H](c1ccccc1)[C@@H](CO)N2Cc1ccc(F)cc1
  -0.9, i
CO[C@H]1CN(C)C(=O)c2cc(NS(C)(=O)=O)ccc2OC[C@@H](C)N(CC2CCCCC2)C[C@@H]1C
  -0.6, i
O=C(Nc1c(Cl)c(C2CC2)nn1-c1ccccc1)C(Cl)(Cl)Cl
  -4.8, i
COc1cccc(-c2ccc([C@@H]3[C@@H](CO)N4CCCCN(C(=O)NC(C)C)C[C@H]34)cc2)c1
  -0.9, i
O=C(Nc1cccc(Cl)c1)N1C[C@H]2[C@@H](c3ccccc31)[C@H](CO)N2C(=O)C1CCCC1
  1.1, i
CC(C)CC1NC(=O)c2ccccc2-n2c1nc1ccc(Cl)cc1c2=O (stereo not given)
  1.5, i
C[C@@H]1CCCCO[C@H](CN(C)C(=O)Nc2ccccc2)[C@H](C)CN([C@@H](C)CO)C(=O)c2cc(NS(=O)(=O)c3ccccc3)ccc2O1
  -0.8, i
CO[C@H]1O[C@H](CO)[C@@H](OC(=O)Nc2ccc3c(c2)OCO3)[C@H](OC(=O)Nc2ccccc2)[C@H]1OC(=O)Nc1ccccc1
  1.4, i
O=C(Cc1ccccn1)NCC[C@@H]1CC[C@@H](NC(=O)CN2CCOCC2)[C@@H](CO)O1
  -1.6, i
CC(C)NC(=O)N1CCCCN2[C@@H](CO)[C@@H](c3ccc(Br)cc3)[C@@H]2C1
  -2.7, i
CC(C)CC#Cc1ccc2c(c1)O[C@@H](CN(C)C(=O)c1cccnc1)[C@H](C)CN([C@@H](C)CO)S2(=O)=O
  1.1, i
C[C@@H]1CN([C@H](C)CO)C(=O)Cc2cc(N(C)C)ccc2O[C@@H]1CN(C)Cc1ccc(C(F)(F)F)cc1
  11, i
COCC(=O)N1C[C@H](C)[C@@H](OC)CN(C)C(=O)c2ccc(NC(=O)NC(C)C)cc2OC[C@@H]1C
  -1.4, i
COc1ccc(S(=O)(=O)Nc2cccc3c2O[C@H](CN(C)S(=O)(=O)c2ccc(Cl)cc2)[C@H](C)CN([C@@H](C)CO)C3=O)cc1
  -0.2, i
CO[C@@H]1CN(C)C(=O)c2cc(NS(=O)(=O)c3ccccc3Cl)ccc2OC[C@H](C)NC[C@@H]1C
  -2.6, i
C[C@H](CO)N1C[C@H](C)[C@H](CN(C)CC2CC2)Oc2ccc(NC(=O)c3ccncc3)cc2C1=O
  -1.8, i
O=C(C[C@H]1CC[C@@H](NC(=O)CCN2CCCCC2)[C@H](CO)O1)Nc1ccc(-c2ccccc2)cc1
  4.1, i
COCC(=O)Nc1ccc2c(c1)OC[C@H](C)N(C(=O)c1ccccc1)C[C@@H](C)[C@@H](OC)CN(C)C2=O
  -0.1, i
O=C(Nc1ccc(Cl)c(Cl)c1)N[C@H]1CC[C@@H](CCn2cc(C3CCCCC3)nn2)O[C@H]1CO
  1.8, i
O=C(Cc1cccnc1)N1[C@@H](CO)[C@@H](c2ccccc2)[C@@H]1CNCC1CCC1
  -0.8, i
O=C(C[C@H]1C[C@@H]2c3cc(NC(=O)CC4CC4)ccc3O[C@@H]2[C@@H](CO)O1)NCc1ccc2c(c1)OCO2
  -0.7, i
COc1ccccc1NC(=O)N1CCCCN2[C@H](CO)[C@H](c3ccc(-c4cccc(C#N)c4)cc3)[C@@H]2C1
  -3.7, i
C[C@@H]1CN([C@@H](C)CO)C(=O)c2cccc(NC(=O)CCCCCC(=O)Nc3ccccc3N)c2O[C@@H]1CN(C)C(=O)Nc1ccc2c(c1)OCO2
  0.4, i
O=C(C[C@H]1CC[C@@H]2[C@H](COC[C@H](O)CN2S(=O)(=O)c2ccccc2)O1)Nc1ccccc1
  0.1, i
C[C@H](CO)N1C[C@H](C)[C@@H](CN(C)S(=O)(=O)c2cn(C)cn2)Oc2ccc(NC(=O)c3ccncc3)cc2C1=O
  -3.3, i
CC(=C1N=C(c2ccccc2)OC1=O)c1cccs1
  5.6, i
COc1ccc2c3c(n(C)c2c1)[C@H](CO)N(C(C)=O)CC31CN(C(=O)Nc2ccc(F)cc2)C1
  1.9, i
C[C@@H]1CN([C@H](C)CO)C(=O)c2cc(NC(=O)Cc3ccccc3)ccc2O[C@H]1CN(C)S(=O)(=O)c1cccs1
  -26, i
O=C(C[C@H]1CC[C@H](NC(=O)C2CCC2)[C@H](CO)O1)NCCCN1CCOCC1
  -0.1, i
C[C@@H]1CN([C@@H](C)CO)C(=O)Cc2cc(NC(=O)Cn3cnnn3)ccc2O[C@H]1CN(C)CC1CCCCC1
  7.6, i
CCCNC(=O)N(C)C[C@H]1Oc2ncc(/C=C/c3ccccc3)cc2C(=O)N([C@H](C)CO)C[C@H]1C
  0.7, i
C[C@H](CO)N1C[C@H](C)[C@H](CN(C)C(=O)CN2CCOCC2)Oc2ncc(C3=CCCCC3)cc2C1=O
  -2.7, i

# Screens as filed in PubChem BioAssay.
